A647 autofl = compound fluoresces in the A647 spectral region; Compound fluorescence, A647 channel (570/671 nm), Tris buffer; max dye-equivalent concentration, M; 59,000 tested, under 10 active; active means above 1 µM dye equivalent; inconclusive means 0.1 to 1 µM; inactive means 0.1 µM or less;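 further: values scaled relative to a standard on each plate; highest value over a series up to 38 µM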
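Tris 100 mM pH 8.0; cpd + A647 stds pin-transferred; 15 min RT; CCD imager, ex 570/em 671. Output = A647-equivalent conc. per cpd conc.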
A488 autofl = compound autofluorescence in A488 spectral region. compound autofluorescence, A488 spectral region, dye equivalency; hits give high values. max dye equivalency, M. 59,000 tested, 0.1% active. AID 591; active = above 10 nM dye equivalent; inconclusive = 1 to 10 nM; inactive = 1 nM or less; about half of its hits are not listed in these tables;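 further: highest value over a series up to 38 µM; compound alone in buffer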
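Autofluorescence read at ex 480/em 540 nm after 15 min RT in 100 mM Tris pH 8.0; compound signal normalized to A488 standard series on each plate, reported as dye-equivalent concentration at each test concentration.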
Resorufin autofl = resorufin region autofluorescence; Compound fluorescence, resorufin region 547/598 nm, buffer; hits give high values; max dye-equivalent concentration, M; 59,000 tested, 0.04% active; AID 588; active = above 10 nM dye equivalent; inconclusive = 1 to 10 nM; inactive = 1 nM or less; a few of its hits are not listed in these tables; further: highest value over a series up to 38 µM
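Intrinsic fluorescence profiled in the resorufin window (ex 547 nm, em 598 nm) after 15 min at room temperature in pH 8.0 Tris buffer (100 mM); responses normalized against a six-point resorufin standard series as dye-equivalent concentration.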
TSHR agonist = TSH receptor (human) agonism; P16473; HEK293-CNG-TSHR cells (CNG channel as cAMP sensor), membrane potential dye, cAMP; Potency, µM (doses to about 57.1 µM), inactives show at the top dose activation, actives largely listed as activators; 73,000 tested, 0.48% active; AID 926; active = well fitted activation curve of enough size with the parental cells flat; inconclusive = any curve in the parental cells; inactive = parental cells flat and receptor cells flat or falling; further: potency means the concentration at half of the fitted maximal effect; % of control where 0% means no effect; weak receptor curves with flat parental cells got no call and are not listed
Target sequence (P16473 whole entry, looked up): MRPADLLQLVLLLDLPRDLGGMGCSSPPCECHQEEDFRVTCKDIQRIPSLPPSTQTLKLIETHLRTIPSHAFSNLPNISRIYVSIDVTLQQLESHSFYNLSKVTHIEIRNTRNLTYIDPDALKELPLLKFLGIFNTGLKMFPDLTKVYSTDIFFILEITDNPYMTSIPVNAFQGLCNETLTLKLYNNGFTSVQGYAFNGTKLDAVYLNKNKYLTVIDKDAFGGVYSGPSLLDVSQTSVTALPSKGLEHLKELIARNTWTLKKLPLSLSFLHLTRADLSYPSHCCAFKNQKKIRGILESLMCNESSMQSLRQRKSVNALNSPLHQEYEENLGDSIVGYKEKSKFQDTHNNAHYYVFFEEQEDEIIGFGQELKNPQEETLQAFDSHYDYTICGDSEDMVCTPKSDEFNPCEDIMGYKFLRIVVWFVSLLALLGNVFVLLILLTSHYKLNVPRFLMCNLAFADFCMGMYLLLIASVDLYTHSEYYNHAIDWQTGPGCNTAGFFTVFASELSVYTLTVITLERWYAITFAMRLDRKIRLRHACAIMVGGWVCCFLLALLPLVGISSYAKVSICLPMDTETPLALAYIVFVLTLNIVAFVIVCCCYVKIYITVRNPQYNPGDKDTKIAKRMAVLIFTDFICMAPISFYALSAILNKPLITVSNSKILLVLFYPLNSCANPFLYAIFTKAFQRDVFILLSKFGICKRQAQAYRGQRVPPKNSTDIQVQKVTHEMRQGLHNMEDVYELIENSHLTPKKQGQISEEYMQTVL
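HEK 293 cells stably expressing TSHR and a cAMP-gated CNG channel; parental CNG-only cells as counterscreen. Cells preloaded 60 min with membrane potential dye plus 100 uM RO 20-1724, then compound 30 min; fluorescence read at 590 nm.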
AID923 = qHTS Assay for Allosteric/Competitive Inhibitors of Caspase-1: Spectroscopic Profiling in AFC Spectral Region; 75,000 tested, 1.1% active; Potency, µM (series often up to 57.5 µM), for inactives: top-dose fluorescence increase, usual class: activators; compound fluorescence, AFC spectral region (405/520 nm); almost no hit is shown here; active means well fitted activation curve with a large enough effect; inconclusive means small, poorly fitted or top-dose-only effect;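 further: potency means the concentration at half of the fitted maximal effect; 0% is about no effect; scaled to a free AFC standard on each plate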
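Compound autofluorescence profiled at 405 nm ex/520 nm em during kinetic caspase 1 run (50 nM enzyme, 5 uM Ac-WEHD-AFC, HEPES pH 7.5, 10 mM DTT). Titration up to 57 uM; baseline from regression intercept, normalized to AFC standard curve.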
Active calls of the source: *; i = inactive; ? = inconclusive; / = not tested or not shown; & = joins results of further samples; [ ] = another dose, or the depositor's remark. The list is partial; the hit share may differ from the screen's.

Second line of a record – A647 autofl	A488 autofl	Resorufin autofl	TSHR agonist	AID923
COc1cccc(OCC(O)CN2CCC(C)CC2)c1 (stereo not given)
  7.8e-09	i	i	0%[11.4 µM]	0.6%
COC(=O)c1[nH]c2ccc(C)cc2c1NC(=O)CCN1CCN(Cc2ccc3c(c2)OCO3)CC1
  1e-09	i	i	-5%	0.1%
COc1ccc(-c2cc(C(=O)O)[nH]n2)cc1OC
  4e-09	i	i	-3%	-0.7%
CCc1oc2ccccc2c1C(=O)c1cc(Br)c(O)c(Br)c1
  1.9e-08&1e-09&4.1e-08	i	i	?	-1.1%[11.5 µM]
COc1ccc(NC(=O)N2CC[C@@]3(CCCN(C(=O)c4c(C)noc4C)C3)C2)cc1
  1e-09	i	i	2%	2.7%
COc1ccc(Cl)cc1NC(=O)CN(C)C(C)C(=O)NCC1CCCCC1 (stereo not given)
  3.2e-08	i	i	?	-0.4%
CN(C)CCN1C(=O)c2oc3ccc(Cl)cc3c(=O)c2C1c1cccc(Br)c1 (stereo not given)
  6.6e-08	i	i	-5%	-0.8%
COc1ccc(-c2cc(-c3ccc(OC)cc3)[nH]n2)cc1
  4.5e-08	i	i	-1%	-1.5%
C(=N\c1nc2ccccc2n1CCN1CCCCC1)/c1ccc2c(c1)OCO2
  1e-09	i	i	/	1.3%
O=C(NC1CCCC1)c1nc2c(nnn2Cc2cccc(Cl)c2)c(=O)[nH]1
  1.9e-08	i	i	?	-0.4%
O=C(CCC1CCCCC1)Nc1ccccc1O
  2.6e-08	i	i	-10%	-2.7%
COc1ccc(C(=O)Nc2ccc(S(=O)(=O)Nc3onc(C)c3C)cc2)cc1OC
  3.1e-08	i	i	7%	0.3%
COc1cccc(C2=NOC(C(=O)Nc3cccc(C(C)=O)c3)C2)c1OC (stereo not given)
  1e-09	i	i	/	-0.4%
O=C(NCCCN1CCCCCC1)C1CC(=O)N(CCc2ccccc2)C1 (stereo not given)
  3.7e-08	i	i	0%[11.4 µM]	-0.1%
COc1ccc(C(O)c2nc3ccccc3s2)cc1 (stereo not given)
  2.8e-08	i	i	?	-0.3%
C=C(C)c1ccc(C(C)(C)NC(=O)NCc2ccco2)cc1
  3.8e-08	i	i	/	2.3%
C=CCNC(NC(=O)c1ccccc1)(C(=O)OCC)C(F)(F)F (stereo not given)
  1e-09	i	i	6%	-1.3%
CCc1nn2c(=O)cc(CSc3nc4sc5c(c4c(=O)n3C)CCCC5)nc2s1
  1.5e-08	i	i	2%	1.7%
COCCn1nnnc1SCC(=O)N1CCCCC1
  1.8e-09	i	i	-2%	0.8%
C[C@H](O)[C@H](O)[C@@H]1CNc2nc(N)[nH]c(=O)c2N1
  8.1e-09	i	i	9%	-2.6%
CSc1nsc(SC)c1C(=O)OCC(F)(F)F
  3.8e-08	i	i	/	0.1%
O=C(Cc1cccs1)Nc1ccc(Cl)cc1
  1e-09	i	i	-17%	-1.4%
CC(C)CN(Cc1cc2ccccc2[nH]c1=O)C(=O)c1cccnc1
  2.3e-08	i	i	6%	1.0%
Cc1ccccc1S(=O)(=O)Cc1ccc(C(=O)N2CCN(c3ccc(F)cc3)CC2)o1
  3.7e-09	i	i	11%	3.0%
CCOC(=O)c1sc(NS(=O)(=O)c2ccc(NC(C)=O)cc2)nc1C
  1.5e-08	i	i	-1%	-0.9%
O=C(c1ncc[nH]1)c1ccccc1C(=O)N1CCOCC1
  1e-09	i	i	-2%	0.3%
COc1ccc(-c2oc3ncnc(NCCCN4CCOCC4)c3c2-c2ccc(OC)cc2)cc1
  4.8e-09	i	i	2%	-2.9%
COC(=O)c1cc2c(cc1Cl)SC(=NCCCN1CCOCC1)NS2(=O)=O
  1e-09	i	i	-7%	-0.8%
COc1ccccc1CN1CCN(C(CC(C)C)c2nnnn2Cc2cccs2)CC1 (stereo not given)
  1.2e-09	i	i	?	1.0%
CSc1ccccc1C(=O)Nc1cccc(N(C)S(C)(=O)=O)c1
  2.9e-08	i	i	8%	-1.1%

Single records, from the list above.
Results for CCc1nn2c(=O)cc(CSc3nc4sc5c(c4c(=O)n3C)CCCC5)nc2s1 → A647 autofl = 1.5e-08; A488 autofl = i; Resorufin autofl = i; TSHR agonist = 2%; AID923 = 1.7%
Results for COc1ccc(NC(=O)N2CC[C@@]3(CCCN(C(=O)c4c(C)noc4C)C3)C2)cc1 → A647 autofl = 1e-09; A488 autofl = i; Resorufin autofl = i; TSHR agonist = 2%; AID923 = 2.7%

(next part)
Second line of a record – A647 autofl	A488 autofl	Resorufin autofl	TSHR agonist	AID923
CCOc1ccc(Br)cc1CC(=O)O
  1e-09	i	i	/	/
COC(=O)Cn1c(C(=O)N2CCCC2)cc2c1C[C@H]1CN(C(=O)c3ccccc3)[C@@](Cc3ccccc3)(C(=O)OC)[C@@H]21
  /	/	/	?	3.0%
O=C(Nc1cnn(Cc2ccc(Cl)cc2Cl)c1)c1noc2c1CCCC2
  /	/	/	5%	-0.9%
OC1(c2cn(Cc3ccccc3)nn2)CCCCC1
  4.7e-09	i	i	-12%	-1.0%
COc1ccc(C(=O)N2CCC3(CC2)CN(c2ncccn2)C3)cc1
  2.9e-09	i	i	-1%	4.1%
N#CCSc1nc2c(sc(=S)n2Cc2ccco2)c(=O)n1-c1ccc(F)cc1
  1e-09	i	i	?	1.2%
CCOC(=O)c1nnn(CC(=O)Nc2cccc(F)c2)c1C(=O)OCC
  1e-09	i	i	-1%	-2.2%
CCN1CCn2c1nc(N1CCCCC1)nc2=O
  5.1e-08	i	i	2%	-2.1%
COc1ccc(S(=O)(=O)Nc2cc(C(=O)NC3CCCCCC3)ccc2N2CCOCC2)cc1
  7e-09	i	i	?	-1.2%
c1ccc(N2CCN(Cc3nnnn3C3CCCCC3)CC2)cc1
  1e-09	i	i	?	0.8%
Cc1nc2nc(SCC(=O)C(C)(C)C)[nH]c2cc1Br
  1e-09	i	i	0%	-0.3%
Cc1ccc(C)c(N2CCN(S(=O)(=O)c3ccc4c(c3)oc(=O)n4C)CC2)c1
  3.3e-08	i	i	/	-1.6%
COc1ccc(C(=O)Cn2c(=O)c(CCC(=O)O)nn3c4ccccc4nc23)cc1OC
  2.4e-08	i	i	-2%	0.1%
COc1nc(OC)nc(N(C)CCO)n1
  /	/	/	1%	-0.8%
Cc1nnc(SCC(=O)Nc2ccc(Br)cn2)[nH]c1=O
  1.9e-09	i	i	0%	0.9%
Clc1ccc(-c2nn3c(C4COc5ccccc5O4)nnc3s2)cc1 (stereo not given)
  5.6e-09	i	i	?	-2.8%
CC1=C(C(=O)OC(C)C)C(c2cccnc2)n2ncnc2N1 (stereo not given)
  /	/	/	?	2.6%
CC(=O)N1[C@H](Cc2ccccc2)C=C[C@]1(C)C(=O)NCc1cc(F)cc(C(F)(F)F)c1
  /	/	/	?	-2.3%
N#Cc1nc(-c2ccc(Cl)cc2)oc1NCc1ccco1
  4.2e-08	i	i	-3%	0.6%
Cn1c(C(=O)N2CCN(c3ncccn3)CC2)cc2c(=O)n(C)c3ccccc3c21
  /	/	/	?	-0.7%
COc1ccc2nccc(C(=O)O)c2c1
  1e-09	i	i	7%[25.6 µM]	-1.4%[25.7 µM]
Cc1nc(N2CCN(C)CC2)c2c(C)c(C(=O)Nc3ccc(F)cc3)sc2n1
  4.9e-09	i	i	?	-1.8%
c1ccc(CSc2nnc(-c3ccco3)n2Cc2ccccc2)cc1
  1e-09	i	i	?	-0.5%
O=C(c1ccccc1-c1ccccc1)N1CCOCC1
  1e-09	i	i	12%	-0.5%
S=c1[nH]ncn1/N=C/c1ccc(Br)cc1
  /	/	/	4%	0.1%
CCn1c(=O)c(=O)[nH]c2cc(C(=O)N3CCN(c4ccccc4F)CC3)ccc21
  1.4e-09	i	i	?	-0.6%
CCc1ccc2c(c1)c1nc(C)sc1n2CC
  1e-09	i	i	/	-0.1%
Cc1ccc(NC(=O)CC2NCCNC2=O)cc1 (stereo not given)
  1.6e-09	i	i	?	0.8%
Cc1onc(-c2ccccc2Cl)c1C(=O)Nc1sc2c(c1C#N)CCC2
  6.4e-09	i	i	/	3.7%
CC1(c2ccc3noc(-c4ccccc4)c3c2)OCCO1
  4.8e-09	i	i	?	-1.0%

Additional entries follow:
Second line of a record – A647 autofl	A488 autofl	Resorufin autofl	TSHR agonist	AID923
O=C(Oc1ccc(OC(=O)c2ccncc2)cc1)c1ccncc1
  1.9e-08	i	i	-3%[11.4 µM]	-0.4%
O=C(C1CCN(S(=O)(=O)c2ccc3c(c2)OCCO3)CC1)N1CCc2ccccc21
  5.7e-08	i	i	8%	2.2%
O=C(CSc1nnc(CNC(=O)c2ccccc2F)o1)NCC1CCCO1 (stereo not given)
  1.4e-08	i	i	6%[11.4 µM]	1.1%
OCCOc1ccc(C2=NCCO2)cc1
  1.8e-08	i	i	-1%	-3.5%
Cc1cc(=O)[nH]c(SCC(=O)N2CCC(C(N)=O)CC2)n1
  4.7e-08	i	i	-1%	-0.2%
CC(NC(=O)c1ccc(=O)oc1)c1ccccc1 (stereo not given)
  8.3e-09	i	i	/	/
Cc1ccc(-c2c3c(=O)n(C)c(=O)n(C)c3c3c(C)cc(C)nn23)cc1
  2.7e-08	i	i	0%	-0.1%
Cc1c(NC(=O)c2c(F)c(F)c(F)c(F)c2F)c(=O)n(-c2ccccc2)n1C
  4.7e-08	i	i	-6%	-2.1%
C=CCn1c(SCC(=O)NC(=O)NCc2ccco2)nc2sc(CC)cc2c1=O
  4.5e-09	i	i	6%	0.4%
CCCNC(=O)C1CN(S(=O)(=O)c2ccccc2)CCN1S(=O)(=O)c1ccccc1 (stereo not given)
  1e-09	i	i	7%	0.2%
COc1ncc2nc(CCc3ccccc3)c(=O)n(Cc3cccs3)c2n1
  5.6e-09	i	i	?	4.2%
O=C(O)c1cc2cc(Cl)ccc2oc1=O
  4.3e-09	i	i	12%	-0.7%
CCc1ccc(-c2nc(CSCC(=O)NCCCN3CCCC3=O)c(C)o2)cc1
  1e-08	i	i	-4%[11.4 µM]	-1.0%
CC1(C)CC(=O)C2=C(C1)NCN(Cc1ccc3c(c1)OCO3)C2
  2.4e-08	i	i	-6%	2.1%
Cc1sc2ncnc(NCc3ccco3)c2c1C
  /	/	/	?	2.3%
O=c1/c(=C\c2cccn2-c2ccccc2)sc2nc3ccccc3n12
  3.7e-09	i	i	/	/
COc1cccc(Cn2c(=O)c(CCc3ccccc3)nc3cncnc32)c1
  1.2e-08	i	i	3%	2.4%
COc1ccc(N(CC(=O)NC2CCCC2)C(=O)c2ccc(N3CCCCC3)nc2)cc1
  5.5e-08	i	i	1%	11%
COc1ccc(OC)c(C2C3=C(N=C4SCC(=O)N42)c2ccccc2CC3)c1 (stereo not given)
  /	/	/	19%	4.0%
CCOc1nc(NCCC2=CCCCC2)nc(N2CCOCC2)n1
  3.5e-09	i	i	5%	-2.0%
CC/C(C)=N/O
  /	/	/	-6%	-0.9%
O=C(O)C1C2C=CC(C2)C1C(=O)OCC1CCCO1 (stereo not given)
  /	/	/	7%[11.4 µM]	-1.9%
CS(=O)(=O)c1ncc(Cl)c(C(=O)Nc2ccc(N3CCOCC3)cc2)n1
  9e-09	i	i	-6%	-3.7%
Cc1ccc(NC(=O)CSc2nccc(=O)[nH]2)c(S(=O)(=O)N2CCOCC2)c1
  3.3e-08	i	i	3%	-0.4%

Reprinted at random: two compounds from above, in no set order.
Second line of a record – A647 autofl	A488 autofl	Resorufin autofl	TSHR agonist	AID923
c1ccc(CSc2nnc(-c3ccco3)n2Cc2ccccc2)cc1
  1e-09	i	i	?	-0.5%
O=C(c1ccccc1-c1ccccc1)N1CCOCC1
  1e-09	i	i	12%	-0.5%

Screens: PubChem BioAssay, National Center for Advancing Translational Sciences (NCATS)
